HIV Env fusion: inhibitors of HIV-1 Env-driven cell-cell fusion, primary screen, HeLa-JRFL effector, CEM21 target cells, luciferase; 360,000 compounds, 1.1% hits; inhibition, % at 12.3 µM;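 active = mean replicate inhibition score of at least 50 and every replicate individually at or above 50; inconclusive = only one of the two criteria met; inactive = mean below 50 and not all replicates reaching 50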;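 also: 0% = plate neutral controls and 100% = maraviroc near 300 nM; one replicate is shown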
eIF4H FP inh: human eIF4H binding inhibitors, primary screen, translation initiation inhibitor project, biochemical, uHTS, fluorescence polarization; eIF4H fluorescence polarization binding assay; inhibition, % at 35 µM; 290,000 compounds, 0.94% hits;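 active = 50% or more with normal probe brightness, or confirmed in later tests; inconclusive = above 50% with abnormal brightness, or retests that disagree; inactive = below 50% or failed in later tests; about a fifth of its hits are not listed in these tables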;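 also: calls also rest on retests at 20 µM and on dose response follow-up; 0% = protein and probe with vehicle and 100% = probe without protein; strong numbers were not always called active; many hits fall short of the cut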
MT1-MMP act inh: blockers of MT1-MMP proenzyme processing, primary screen, HT1080 RFP-PRO-GFP cells, GFP/RFP fluorescence; Matrix metalloproteinase-14 (Homo sapiens), P50281; GFP/RFP ratio fluorescence, overnight; percent of plate control window, DMSO zero; GFP/RFP ratio change, % at 20 µM; 360,000 compounds, 0.061% hits; AID 651647, 2012;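 active = GFP/RFP ratio change of at least 30% with cell ATP level not reduced by more than half and red fluorescence within 50% of control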; also: strong numbers were not always called active
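Assay system: HT1080 RFP-PRO-GFP cells. Benchmarks: DMSO vehicle wells and RFP-L50D-GFP reporter cell wells. Times: overnight cell settling, then overnight compound exposure, 37 °C, 5% CO2. Compound: 20 µM single dose, 1% DMSO. Read-out basis: GFP/RFP fluorescence ratio.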
UUG fidelity: modulators of yeast start codon fidelity, primary screen, whole organism, S. cerevisiae, single point, plate reader. S. cerevisiae UUG-firefly luciferase reporter, luminescence/redox ratio. activity score, % at 18.7 µM. 350,000 compounds, 0.13% hits;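 active = replicate mean at a twofold rise or more, about +100% in these data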;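 also: firefly luciferase made from a UUG start codon reports start codon fidelity; reporter light over untreated wells divided by growth signal over untreated wells; some hits fall short of that in this replicate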
Rce1 inh: yeast Rce1p protease inhibitors, primary screen, biochemical, fluorescence, cell-free homogeneous; CAAX prenyl protease 2 (Saccharomyces cerevisiae (strain ATCC 204508 / S288c)), Q03530; yeast membranes, quenched prenylated peptide cleavage fluorescence; calls only; 290,000 compounds, 0.27% hits;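 active = fall in fluorescence gain of 50% or more versus controls, with final raw signal at or below 3038400; inconclusive = same 50% fall but final raw signal above 3038400; inactive = fall in fluorescence gain under 50%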;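 also: plate controls were neutral control wells for no effect and wells lacking membranes for full effect; tested at 10 µM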
CSC inhib: cancer stem cell viability inhibitors, primary screen, luminescence. inhibition, % at 7.5 µM. 300,000 compounds, 1.1% hits. AID 2717, 2010. cancer stem cell-like cells viability;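 active = mean at 75% or more and at least half the replicates too; inconclusive = mean and replicates disagree; tested in HMLE shEcad cells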;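 also: 0% = median of negative and 100% = median of positive control wells; the first replicate is given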
PABP FP inh: PABP poly(A) RNA binding inhibitors, primary screen, biochemical, fluorescence polarization, uHTS; Polyadenylate-binding protein 1 (Homo sapiens), P11940; inhibition, % at 35 µM; 290,000 compounds, 1% hits; AID 2014, 2009;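 active = 50% or more with normal probe brightness, or confirmed in later tests; inconclusive = above 50% with abnormal brightness, or retests that disagree; inactive = below 50% or failed in later tests; about a fifth of its hits are not listed in these tables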;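 also: calls also rest on retests at 20 µM and on dose response follow-up; controls were probe without protein and protein plus probe with vehicle; some compounds called inactive have numbers as strong as hits; many hits fall short of the cut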
Target sequence (P11940 whole entry, looked up): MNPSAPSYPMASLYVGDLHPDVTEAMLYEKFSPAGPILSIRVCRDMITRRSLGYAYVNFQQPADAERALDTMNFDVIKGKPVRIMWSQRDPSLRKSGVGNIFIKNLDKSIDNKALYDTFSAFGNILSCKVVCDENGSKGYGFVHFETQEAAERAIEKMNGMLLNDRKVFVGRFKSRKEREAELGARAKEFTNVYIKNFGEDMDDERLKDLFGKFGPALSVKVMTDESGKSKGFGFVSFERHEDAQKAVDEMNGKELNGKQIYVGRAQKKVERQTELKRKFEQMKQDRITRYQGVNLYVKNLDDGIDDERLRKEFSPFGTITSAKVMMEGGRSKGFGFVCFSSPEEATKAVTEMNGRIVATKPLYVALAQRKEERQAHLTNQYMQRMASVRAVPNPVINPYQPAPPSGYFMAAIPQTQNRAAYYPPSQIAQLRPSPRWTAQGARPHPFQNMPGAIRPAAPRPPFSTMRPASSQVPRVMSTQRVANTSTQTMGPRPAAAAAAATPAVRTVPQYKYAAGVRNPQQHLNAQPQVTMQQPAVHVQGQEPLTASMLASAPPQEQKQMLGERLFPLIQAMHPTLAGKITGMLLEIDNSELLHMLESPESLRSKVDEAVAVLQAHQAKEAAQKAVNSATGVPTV
MT1-MMP act inh RFP: further read-out of MT1-MMP act inh, marked with its call; RFP signal change, %; measured here: RFP expression control read;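 0 = vehicle wells; hits needed this value within 50% of zero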
Numbers without * were called inactive; i = inactive; ? = inconclusive; · = no result given; + = active, no number.

1) CCOC(=O)N1CCC(N2C(=O)c3ccccc3C2Nc2ccc(S(=O)(=O)N3CCOCC3)cc2)CC1 (stereo unspecified)
2) O=C(CCc1n[nH]c(=O)[nH]c1=O)N/N=C/c1ccc(Br)o1
3) O=C(COc1ccccc1F)N1CCN(S(=O)(=O)/C=C/c2ccccc2)CC1
4) CCNc1ccc(C(=O)O)cc1N
5) O=C(NCC1CCN(c2ccc(S(=O)(=O)N3CCOCC3)cc2)CC1)c1cccc(Cl)c1
6) C=CCNc1nc2cc(-c3cccc(Cl)c3)sc2c(=O)n1C
7) CCc1ccc2oc(-c3cc(N)cc(C)c3O)nc2c1
8) COc1ccccc1C(=O)OCn1nnc2ccccc2c1=O
Screen / compound no. | 1 | 2 | 3 | 4 | 5 | 6 | 7 | 8
HIV Env fusion | 21 | -4 | · | 2 | · | 21 | · | ·
eIF4H FP inh | -1 | 2 | 0 | ? | 11 | · | 19 | 2
MT1-MMP act inh | -2 | 3 | 4 | 3 | 2 | 13 | 4 | -1
MT1-MMP act inh RFP | -5 | 4 | -3 | 7 | -9 | 2 | -7 | 6
UUG fidelity | 4 | · | -1 | · | -12 | -17 | -20 | -5
Rce1 inh | i | i | i | i | i | · | · | i
CSC inhib | -15 | -9 | 1 | 6 | -4 | · | 18 | -2
PABP FP inh | 1 | 11 | 1 | -12 | 1 | · | -2 | -3

9) Nc1c(C(=O)c2ccco2)oc2ccccc12
10) O=C(O)c1cc2ncc(-c3[nH]ncc3[N+](=O)[O-])cn2n1
11) COc1cc(-c2cc(-c3ccc(O)cc3)nc(N)c2C#N)ccc1O
12) c1ccc2c(Nc3nncs3)c3ccccc3nc2c1
13) CCOc1ccc(CCNC(=O)c2cc([N+](=O)[O-])ccc2N2CCOCC2)cc1OCC
14) COc1ccc(C=O)c(OCc2cn(CC(=O)c3ccc(O)cc3)nn2)c1
15) COc1cc(CN2CCc3ccc(NC(=O)CCc4ccccc4OC)cc3C2)ccc1O
16) Cc1nc(SCC(=O)Nc2ccccc2Cl)oc1C
Screen / compound no. | 9 | 10 | 11 | 12 | 13 | 14 | 15 | 16
HIV Env fusion | -24 | 6 | 30 | -3 | 1 | 1 | -12 | 2
eIF4H FP inh | 9 | 48 | -3 | -2 | -7 | · | 0 | -8
MT1-MMP act inh | · | 1 | 8 | 7 | -4 | 1 | 2 | -6
MT1-MMP act inh RFP | · | 5 | 3 | -2 | -2 | 1 | -1 | -4
UUG fidelity | · | · | · | -3 | 0 | 26 | -2 | -22
Rce1 inh | i | i | + | i | i | · | i | i
CSC inhib | -16 | 7 | -11 | 3 | -12 | · | -9 | -6
PABP FP inh | -1 | 4 | 7 | -2 | 1 | · | -6 | -1

17) Cc1cc(S(=O)(=O)NCC(c2ccc(F)cc2)N2CCN(C)CC2)ccc1F (stereo unspecified)
18) CN(C)C(=O)COc1ncnc2scc(-c3ccc(F)cc3)c12
19) CC(=O)c1cc(CN2CCC(n3nccc3NC(=O)c3ccccc3)CC2)cs1
20) CCOC(=O)C(Oc1ccc2c(-c3ccc(OC)cc3)cc(=O)oc2c1C)c1ccccc1 (stereo unspecified)
21) COC(=O)c1ccc2nc(-c3ccc(C)cc3)c(Cc3ccsc3)n2c1
22) O=S(=O)(Nc1ncccn1)c1ccccc1
23) Nc1c(-c2ccccc2)sc2ccc3ccccc3[n+]12
24) COc1ccc(CC(=O)Oc2ccc(F)cc2)cc1
Screen / compound no. | 17 | 18 | 19 | 20 | 21 | 22 | 23 | 24
HIV Env fusion | -8 | -13 | -13 | 48 | 4 | -5 | -14 | 4
eIF4H FP inh | · | 0 | 9 | -6 | · | -1 | -18 | -8
MT1-MMP act inh | 2 | 4 | -3 | -13 | -7 | 1 | -10 | 2
MT1-MMP act inh RFP | 3 | 4 | 0 | -12 | -2 | 4 | -3 | 3
UUG fidelity | · | -8 | 5 | 1 | 13 | -19 | -7 | -6
Rce1 inh | i | · | i | i | · | i | i | i
CSC inhib | 4 | 0 | -5 | 21 | · | -11 | -7 | -5
PABP FP inh | · | ? | 2 | 4 | · | 18 | -4 | 12

Given with tabs: part of the list above.
nr	Compound	HIV Env fusion	eIF4H FP inh	MT1-MMP act inh	MT1-MMP act inh RFP	UUG fidelity	Rce1 inh	CSC inhib	PABP FP inh
23	Nc1c(-c2ccccc2)sc2ccc3ccccc3[n+]12	-14	-18	-10	-3	-7	i	-7	-4
20	CCOC(=O)C(Oc1ccc2c(-c3ccc(OC)cc3)cc(=O)oc2c1C)c1ccccc1 (stereo unspecified)	48	-6	-13	-12	1	i	21	4
19	CC(=O)c1cc(CN2CCC(n3nccc3NC(=O)c3ccccc3)CC2)cs1	-13	9	-3	0	5	i	-5	2
24	COc1ccc(CC(=O)Oc2ccc(F)cc2)cc1	4	-8	2	3	-6	i	-5	12

(more compounds)
25) CC(OC(=O)c1ccc(Cl)nc1)C(=O)Nc1ccc2c(c1)OCO2 (stereo unspecified)
26) COc1ccc(CN2C(=O)c3c(c(C)n(C)c3C)C2C(=O)NC2CCC(C)CC2)cc1 (stereo unspecified)
27) Cc1cccc(C)c1NC(=O)NC1CCc2ccccc21 (stereo unspecified)
28) Cc1cccc(Nc2nnc(SCC(=O)NC(=O)Nc3ccc4c(c3)OCCO4)s2)c1
29) C#CCN1C=C(C(=O)OCC)C(C)NS1(=O)=O (stereo unspecified)
30) O=[N+]([O-])c1ccc(OCC(O)CN(C2CCCCC2)C2CCCCC2)cc1 (stereo unspecified)
31) COc1ccc(OCCCC(=O)OCC(=O)Nc2nnc(-c3ccccc3)o2)cc1
32) Cc1nc([N+](=O)[O-])cn1CC(=O)Nc1ccc(Cl)cc1
Screen / compound no. | 25 | 26 | 27 | 28 | 29 | 30 | 31 | 32
HIV Env fusion | -11 | -10 | 6 | 10 | 16 | -17 | · | 3
eIF4H FP inh | · | -16 | -2 | -11 | · | 0 | · | 8
MT1-MMP act inh | 5 | 1 | 1 | -2 | 1 | -1 | -1 | 4
MT1-MMP act inh RFP | 4 | 3 | 4 | -6 | 6 | 3 | 4 | -4
UUG fidelity | -15 | -12 | -17 | -9 | 8 | -7 | -20 | 8
Rce1 inh | · | i | i | i | · | i | · | i
CSC inhib | · | 8 | -16 | 18 | · | 20 | 25 | -23
PABP FP inh | · | 27 | -1 | 3 | · | 6 | · | -1

33) CC(=O)c1sc(NC(=O)CCS(=O)(=O)c2ccc(F)cc2)nc1C
34) O=C(NCC(c1ccco1)N1CCOCC1)c1ccc(C(F)(F)F)cc1 (stereo unspecified)
35) CC(C)c1nc(=S)n(-c2ccccc2)[nH]1
36) CCc1nc2ccc(C(=O)N(C)Cc3ccco3)cn2c1N(C)C(=O)Cc1ccccc1
37) Nc1cc(S(=O)(=O)N2CCCCC2)ccc1Oc1ccccc1
38) CC(=O)c1ccc(C(=O)N2CCCC(C(=O)c3ccc(Cl)cc3)C2)s1 (stereo unspecified)
39) Cc1ccc2c(c1)N(C(C)C(=O)NCc1ccc3c(c1)OCO3)C(=O)CO2 (stereo unspecified)
40) Cc1ccccc1Cn1cc(NC(=O)COc2ccccc2)cn1
Screen / compound no. | 33 | 34 | 35 | 36 | 37 | 38 | 39 | 40
HIV Env fusion | 11 | -10 | · | -2 | 17 | 6 | 7 | ·
eIF4H FP inh | · | · | -8 | · | -3 | 0 | -4 | 2
MT1-MMP act inh | 1 | 0 | 5 | -1 | 1 | 2 | 0 | 2
MT1-MMP act inh RFP | 0 | 3 | 1 | 3 | -17 | -4 | 1 | 2
UUG fidelity | -13 | 0 | · | 0 | · | 2 | · | -7
Rce1 inh | · | i | i | · | i | i | i | i
CSC inhib | · | 3 | 18 | · | -9 | -6 | -7 | ·
PABP FP inh | · | · | -8 | · | 3 | 5 | 17 | -5

41) COC(=O)c1cccc(-n2[nH]nnc2=S)c1
42) CC(=O)C1=C(O)C(=O)N(Cc2ccccc2)C1c1ccccc1F (stereo unspecified)
43) COc1ccc(C(=O)C2CCCN(C(=O)CCc3scnc3C)C2)c(C)c1 (stereo unspecified)
44) COC/C=C/C1=CC2=CC(=O)C(C)(OC(=O)c3cnc4ccccc4n3)C(=O)C2=CN1c1ccc(OC)cc1 (stereo unspecified)
45) CC(=O)c1ccc(NC(=O)N2CCN(c3cccc(Cl)c3)CC2)cc1
46) Cn1c(=O)cc(OCCCC(=O)NCc2cccnc2)c2ccccc21
47) CC[C@H]1OC(=O)[C@H](C)[C@@H](O[C@H]2C[C@@](C)(OC)[C@@H](O)[C@H](C)O2)[C@H](C)[C@@H](O[C@@H]2O[C@H](C)C[C@H](N(C)C)[C@H]2O)[C@](C)(O)C[C@@H](C)C(=O)[C@H](C)[C@@H](O)[C@]1(C)O
48) CN1CCCN(C(=O)c2cc(=O)[nH]c3ccccc23)c2nc3ccccc3nc21
Screen / compound no. | 41 | 42 | 43 | 44 | 45 | 46 | 47 | 48
HIV Env fusion | -82 | · | 25 | -9 | 15 | -4 | -35 | -1
eIF4H FP inh | -4 | 9 | -1 | · | 8 | -12 | 29 | 7
MT1-MMP act inh | 3 | 4 | -9 | 0 | 2 | 9 | -4 | 0
MT1-MMP act inh RFP | 5 | 3 | -11 | 1 | -6 | 9 | 3 | 1
UUG fidelity | -11 | -10 | · | -21 | -7 | · | -28 | -3
Rce1 inh | i | i | i | i | i | i | i | i
CSC inhib | · | -5 | -6 | -2 | 11 | -1 | 5 | -12
PABP FP inh | 2 | 13 | 3 | · | -1 | -7 | 6 | 1

49) O=C(CSc1nnc(CNC(=O)c2c(F)cccc2F)o1)Nc1ccc2c(c1)OCO2
50) O=[N+]([O-])c1cc(-c2ccc(/C=N/n3cnnc3)o2)ccc1Cl
51) Cc1cc(C)n(CCCN2C(=O)c3cccc4cccc(c34)C2=O)n1
52) CCCCSc1nc2sc3c(c2c(=O)n1-c1ccc(C)cc1)CCN(C)C3
53) CN1CCN(C2=C(Cl)C(=O)N(c3ccc(Cl)c(Cl)c3)C2=O)CC1
54) CCOc1ccc2oc(C(=O)N(CC)CC(=O)Nc3c(F)cccc3F)c(C)c2c1
55) COc1ccccc1CNc1nc(NCc2ccc(NC(C)=O)cc2)c2sccc2n1
56) COc1cc(-c2cc3nc(NCCc4ccncc4)ccn3n2)cc(OC)c1OC
57) C/C(=N/Oc1nc(C)cc(C)n1)c1ccc(F)cc1
58) Cc1ccc(-n2nc(C)c3c(C)c(CCC(=O)O)c(C)nc32)cc1
59) N#Cc1c(N2CCOCC2)nsc1-c1ccccc1
Screen / compound no. | 49 | 50 | 51 | 52 | 53 | 54 | 55 | 56 | 57 | 58 | 59
HIV Env fusion | · | -11 | -2 | 5 | · | 8 | -63 | 15 | · | -1 | -48
eIF4H FP inh | -5 | 3 | -7 | -3 | 7 | · | · | · | -2 | -7 | -4
MT1-MMP act inh | 0 | 3 | 0 | 0 | -2 | 3 | -11 | 17 | 2 | 1 | -4
MT1-MMP act inh RFP | 1 | 0 | 0 | -12 | 3 | -3 | -8 | 7 | 2 | 1 | -2
UUG fidelity | 3 | 4 | · | -11 | -4 | · | -10 | -11 | -29 | -3 | ·
Rce1 inh | i | i | i | i | i | i | · | · | i | i | ·
CSC inhib | -16 | -5 | 5 | -2 | -12 | -2 | · | · | 8 | 2 | -5
PABP FP inh | 4 | -5 | 1 | -5 | 16 | · | · | · | 6 | 11 | 1
